CtBP-E1A blk = inhibitors of CtBP/E1A interaction. activity change, % (concentration not given with the values). AlphaScreen GST-E1A/His-CtBP binding, 1536-well; stronger effect = lower value; control for the full effect not named in the record. hit rate 0.49% among 340,000; in the data active means activity change below about -65%; inconclusive means about -30% to -65%; inactive means above about -30%; note: % is set by controls: 0 for no effect and ±100 for the full control effect
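Homogeneous bead-based format: GST-tagged E1A captured on glutathione donor beads, His-tagged CtBP on nickel acceptor beads; compounds precede bead addition by 2 h at 37 °C.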
D2 agonist = activates the human D2 dopamine receptor; P14416; DiscoveRx PathHunter D2 beta-arrestin, luminescence, 90 min; 100% = 57 uM dopamine signal; activation, % (no concentration beside the values); hit rate 0.084% among 360,000; in the data active = activation above about 40%; inconclusive = about 15% to 40%; inactive = below about 15%; note: compound concentration not given in the record; the text of the record calls up to 30% inactive
Target sequence (P14416 whole entry, looked up): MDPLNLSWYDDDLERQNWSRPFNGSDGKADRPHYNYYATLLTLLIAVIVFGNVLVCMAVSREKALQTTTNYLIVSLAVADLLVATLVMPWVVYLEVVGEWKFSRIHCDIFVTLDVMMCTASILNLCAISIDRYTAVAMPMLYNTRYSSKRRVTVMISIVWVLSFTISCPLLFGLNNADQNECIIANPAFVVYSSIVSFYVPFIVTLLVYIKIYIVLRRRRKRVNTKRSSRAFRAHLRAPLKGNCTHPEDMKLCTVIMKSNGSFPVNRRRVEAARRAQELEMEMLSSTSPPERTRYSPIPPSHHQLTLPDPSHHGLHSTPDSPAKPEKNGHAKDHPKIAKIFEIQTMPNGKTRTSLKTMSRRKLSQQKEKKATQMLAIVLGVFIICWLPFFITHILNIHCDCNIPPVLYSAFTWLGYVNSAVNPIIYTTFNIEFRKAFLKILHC
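DiscoveRx PathHunter D2 beta-arrestin cells (2,100/well) attached overnight, then compound-stimulated 90 min at 37 C in HBSS/10 mM HEPES/0.1% Tween-20 buffer; beta-galactosidase complementation read by luminescence after 1 h at ambient temperature. Dopamine 57 uM final (EC100) as control.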
gsp ag = gsp mutant agonism; hit rate 0.13% among 340,000; AID 624287; gsp mutant cells, cAMP HTRF, 30 min; control for the full effect not named in the record; Potency, µM (top dose mostly 76.9 µM), for the others: top-dose activation (cAMP increase), actives largely listed as activators; active = well fitted activation curve with a large enough effect; inconclusive = small, poorly fitted or top-dose-only effect, or another doubt; inactive = no such curve, though single readings can be large or run the other way; cell line not stated here;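 note: phosphodiesterase inhibitor Ro 20-1724 added with compounds to block cAMP breakdown; potency is the fitted concentration of half-maximal effect; nearly all actives have a fitted effect of over 60% in size; about a fifth of the inactives were tested at one dose only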
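Cells in DMEM/10% FBS with G418 were pretreated with compounds in DMSO plus […] (300 uM stock) for 30 min at 37C. cAMP was measured by HTRF (cAMP-d2 plus anti-cAMP antibody-K) after 30 min at room temperature.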
Six1-Eya2 blk = Six1/Eya2 interaction inhibition | hit rate 0.56% among 360,000 | AlphaScreen GST-Six1/His-Eya2 binding, biochemical; stronger effect = lower value; control for the full effect not named in the record | Q15475+O00167 | activity change, % (test concentration not listed); in the data active = activity change below about -65%; inconclusive = about -30% to -65%; inactive = above about -30%; note: % is set by controls: 0 for no effect and ±100 for the full control effect; compound concentration not given in the record
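AlphaScreen luminescence read after one hour at 37 °C in darkness. Pin-transferred compounds met GST-Six1 and His-Eya2 protein (5X stock 250 nM/500 nM) plus glutathione donor and Ni-chelate acceptor beads (5X, 50 ug/mL).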
gsp antagonist = gsp mutant antagonism; gsp-mutant cells, cAMP HTRF, 30 min; control for the full effect not named in the record; Potency, µM (doses to about 76.9 µM), for inactives: top-dose activity change, negative = inhibition, usual class: inhibitors; hit rate 0.4% among 340,000; active = falling curve of any shape with a large fitted effect; inconclusive = falling curve, mostly with a smaller effect; inactive = flat or rising curve; cell line not stated here;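 note: intracellular cAMP measured with PDE inhibitor Ro 20-1724 present during compound exposure; potency is the fitted concentration of half-maximal effect; % is set by controls: 0 for no effect and ±100 for the full control effect; nearly all actives have a fitted effect of over 65% in size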
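Measurement of cellular cAMP by homogeneous time-resolved fluorescence following a 30 min compound exposure at 37C. The PDE inhibitor […] was present throughout; the assay buffer was DPBS with 0.05% BSA and 0.005% Tween 20.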
D2 potentiator = human D2 receptor positive allosteric modulation. hit rate 0.23% among 360,000. P14416. potentiation, % (test concentration not listed). DiscoveRx D2 beta-arrestin cells, luminescence, 90 min; 100% = 57 uM dopamine signal; active = potentiation of 50% or more; inconclusive = 30% to 50%; inactive = 30% or less;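 note: compound concentration not given in the record; tested on top of an EC20 dose of dopamine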
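D2 cells co-treated with compound plus 50 nM dopamine (EC20) for 90 min at 37 deg C to detect potentiation. Beta-arrestin recruitment was read as enzyme-fragment luminescence after 1 h at ambient temperature. Full response was set by 57 uM dopamine.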
Active calls of the source: *; u = inconclusive; x = no result given; [ ] = remark or other dose. Compounds were not picked by outcome; 1.4% or so of the library scored in one or more.

CtBP-E1A blk,D2 agonist,gsp ag,Six1-Eya2 blk,gsp antagonist,D2 potentiator,Structure
-6,1.0,-15%[15.4 µM],-16,25µM*,-6,O=C(Cc1ccc(Br)c2ccccc12)N/N=C/c1ccccn1
x,1.1,5%,-5,-13%,-14,Cc1ccc2ccc(C(Nc3cccc(C(F)(F)F)c3)c3cccnc3)c(O)c2n1 (stereo not given)
12,-0.8,-10%,5,4%,1,O=C1CCOc2cc(OCc3ccccc3)ccc21
-5,-4.0,x,0,x,-10,CCc1nc2ccc(C(=O)N3CCN(C(C)=O)CC3)cn2c1N(C=O)Cc1ccc(OC)cc1
8,-2.3,6%,-1,12%,-12,Cc1csc(SCC(=O)NC(=O)Cc2ccccc2)n1
-6,4.6,2%[15.4 µM],-22,-17%,18,Cc1cccc(C)c1NC(=O)c1ccc([N+](=O)[O-])s1
-1,7.4,u,-3,3%,11,C=CCNC(=S)Nc1cccc(N)c1
-2,-3.3,-36%[inhibitor],-5,0%,-2,COc1cc2c(cc1OC)CN(C(=O)CCOc1ccccc1)CC2
3,-0.2,-35%[inhibitor],4,-1%,2,CCCCn1c(=O)[nH]c(=O)c2c1nc(CN(C)Cc1cccc(OC)c1OC)n2CCC
x,0.7,-47%[inhibitor],-3,-4%,1,O=C(Nc1ccc(F)cc1)c1cc2ccccc2o1
-11,-2.5,-23%[15.4 µM],-10,15%,0,CCOc1ccc(Br)cc1S(=O)(=O)Nc1ccc(NC(=O)c2ccccc2C)cc1
x,-1.2,26%,4,-7%,2,Cc1ccc(SCC(=O)OC(C)C(=O)NC2CCCCC2C)c(C)c1 (stereo not given)
5,-2.3,-17%,10,9%,-8,CN(C)C(=O)Cn1cnc2c(cnn2-c2ccccc2Cl)c1=O
1,-1.6,-8%,0,-18%,0,C#Cc1ccc([C@@H]2C=C(C(=O)Nc3ccccc3)O[C@H](OCC)[C@H]2CCCO)cc1
9,0.9,-29%,3,2%,1,Cc1cccc(NC(=O)/C(C#N)=C\c2cn(CC(=O)O)c3ccccc23)c1
x,-1.4,u,7,-15%,-4,COc1ccc2sc(-c3ccc(N(C)C)cc3)c(C#CCO)c2c1
x,-1.1,u,0,2%,-1,OC1CCCN(CC(O)c2ccccc2)C1 (stereo not given)
1,-2.2,x,1,-1%,1,Cc1oc2c(C)c3oc(=O)c(CCC(=O)NCCN4CCOCC4)c(C)c3cc2c1C
4,-1.3,38%,4,-3%,-6,CCCCNC(=O)CCc1nc2cccnc2n1Cc1ccccc1
-4,-12,7%,2,5%,-12,O=C(CSc1nc2ccccc2c(=O)[nH]1)N1CCCCC1

Exported as comma-separated lines: 4 of the compounds above
structure,CtBP-E1A blk,D2 agonist,gsp ag,Six1-Eya2 blk,gsp antagonist,D2 potentiator
CCCCNC(=O)CCc1nc2cccnc2n1Cc1ccccc1,4,-1.3,38%,4,-3%,-6
CN(C)C(=O)Cn1cnc2c(cnn2-c2ccccc2Cl)c1=O,5,-2.3,-17%,10,9%,-8
OC1CCCN(CC(O)c2ccccc2)C1 (stereo not given),x,-1.1,u,0,2%,-1
Cc1ccc(SCC(=O)OC(C)C(=O)NC2CCCCC2C)c(C)c1 (stereo not given),x,-1.2,26%,4,-7%,2

Further structures.
CtBP-E1A blk,D2 agonist,gsp ag,Six1-Eya2 blk,gsp antagonist,D2 potentiator,Structure
x,-2.0,-2%,-10,3%,-4,CC1(C)CC(=O)C=C(Nc2cccc(Cl)c2Cl)C1
1,-0.9,-3%,17,-2%,-2,CCOC(=O)Cc1nc(-c2cccc(C(F)(F)F)c2)no1
4,-4.0,15%,-5,-1%,-16,FC(F)(F)COc1nc(N2CCOCC2)nc(N(c2ccccc2)c2ccccc2)n1
-3,0.9,2%,-5,9%,-19,COc1cc(CN(C)CCc2ccccc2)ccc1OCc1ccccc1
12,-1.0,-8%[15.4 µM],-9,13%,-4,CCOC(Cn1cc(C)c(=O)[nH]c1=O)OCC
3,5.5,0%,11,17%,u,CCOC(=O)c1c(-c2cccc([N+](=O)[O-])c2)csc1NC(=O)CCCOc1ccccc1
5,-4.0,8%,4,0%,-5,O=C(Cc1ccc(Cl)cc1)c1ccccc1
x,-3.2,-32%[inhibitor],-8,-18%,-6,O=C(NC(=S)Nc1ccc(Cl)cn1)C12CC3CC(CC(C3)C1)C2
0,-2.1,11%,1,4%,-1,CN(C(=O)COC(=O)c1nn(C)c(=O)c2ccccc12)c1c(N)n(Cc2ccccc2)c(=O)[nH]c1=O
x,7.7,2%,-9,3%,-13,CC1CCN(c2ccc(C=O)o2)CC1
4,-1.3,-36%[inhibitor],-5,8%,-23,CCn1c(O)c(N=NC(=O)CNC(=O)/C=C/c2ccco2)c2ccccc21
-21,-1.4,x,8,x,1,CC1(C(=O)NS(=O)(=O)C2CC2)CCN(C(=O)c2ccccc2OC(F)(F)F)C1 (stereo not given)
-9,0.2,-3%,-1,0%,-3,CCCc1nc(SCC(=O)Nc2ccc(N3CCOCC3)cc2)c2ccccc2n1
-1,-2.6,-4%,3,4%,-16,CC(NC(=O)C1CCCO1)c1ccccc1 (stereo not given)
7,-3.1,4%,1,3%,-22,Cn1ncc(Cl)c1C(=O)Nc1cccc(Cl)c1
x,-3.2,-39%[inhibitor],-2,-10%,-4,C=CCOc1c(Br)cc(/C=C2\SC(=Nc3ccccc3)NC2=O)cc1OC
-1,-3.0,11%[15.4 µM],-15,-14%,7,CCOc1ccc(C(=O)Nc2cccc(-c3ccc(N4CCOCC4)nn3)c2)cc1OCC
3,-0.1,x,5,3%,-3,COc1cc(/C=C/CO)cc(OC)c1O[C@@H]1O[C@H](CO)[C@@H](O)[C@H](O)[C@H]1O
3,-3.4,-40%,3,-1%,-5,CCOc1ccc(NC(=O)c2ccc(N)cc2)cc1
0,-2.0,x,-12,-10%,-4,CCOC(=O)[C@H]1[C@H]2COc3ccc(Br)cc3[C@H]2N2C(=O)CN(CCc3c[nH]c4ccccc34)C(=O)[C@@]12C
-9,-1.7,-2%,-8,-9%,4,CCOC(=O)N1CCN(C(=O)c2cc3n(n2)C(C(F)(F)F)CC(c2ccc4c(c2)OCO4)N3)CC1 (stereo not given)
2,-4.4,x,5,x,-8,Cc1ccsc1C(=O)N1CCC1(C)C(=O)NS(=O)(=O)c1ccc(C#N)cc1 (stereo not given)
7,-2.7,-25%,-8,2%,4,COc1ccc(NC(=O)C(NC(C)=O)C(=O)NCc2ccccc2)cc1 (stereo not given)
-13,1.4,x,-10,0%,-2,Nc1nc(N)nc(-c2cc(O)ccc2O)n1
5,-3.7,14%[15.4 µM],1,-20%,-7,CN(C(=O)Cc1c(C(=O)O)n(C)c2ccccc12)c1ccc(Cl)cc1
-9,-2.7,6%,-5,2%,-26,CN1CCN(c2ccc(NC(=S)NC(=O)c3cccc4c(Cl)cccc34)cc2)CC1
0,-1.4,u,1,6%,-5,CCc1ccccc1NC(=O)CSc1nc2c(c(-c3ccco3)c1C#N)CCCC2
19,-1.4,-20%,5,-10%,-7,COC(=O)C1=CN(C)C=C(C(=O)OC)C1c1ccc(Cl)cc1Cl
5,-0.3,15%,1,-4%,-3,Cc1ccc(NS(=O)(=O)c2cc([N+](=O)[O-])ccc2N/N=C/c2sc(N3CCOCC3)nc2-c2ccccc2)c(C)c1
10,-3.7,-39%[inhibitor],-3,15%,-6,CCN(CC(=O)Nc1c(F)cccc1F)C(=O)CSCC(=O)Nc1cccc(C)c1
4,-0.3,-15%[15.4 µM],4,14%,-1,CC(C)CCN1CCC(N)=NC1=O
-2,0.7,9%,-3,-8%,-2,Cc1ccc(NC(=O)C2CCN(S(=O)(=O)c3cccc4cccnc34)CC2)nc1
1,-1.9,39%,0,-12%,7,COc1cccc(OC)c1C(=O)N1CCN(Cc2ccccc2C(F)(F)F)CC1
-5,-0.1,-1%,-5,-8%,-6,O=C(CSc1nc2ccccc2c(=O)n1-c1ccccc1F)NC1CC1
7,-4.5,-19%,3,-5%,-10,O=C(CSc1nc2cccnc2n1Cc1ccccc1)N1CCCC1
x,8.6,-14%,6,-1%,4,Cc1cc(SCc2ccccc2F)nc(=O)[nH]1
10,-1.4,-26%,6,10%,0,O=C(Nc1ccccc1)Nc1nnc(SCc2ccc(Cl)cc2)s1
18,-1.8,24%,17,5%,-5,CCN(c1ccccc1)S(=O)(=O)c1ccc(F)cc1C
0,4.5,x,4,x,8,NC(c1csc(NC(=O)Nc2ccc(OC(F)(F)F)cc2)n1)C1CCCCC1 (stereo not given)
3,-1.0,11%,9,10%,-1,CCC(C)c1ccc(NC(=O)C/C(C)=N/NC(=O)c2cnccn2)cc1 (stereo not given)
-4,0.8,-9%[15.4 µM],-2,5%,4,CC(C)(C)c1ccccc1NC(=O)c1ccc2c(c1)SC1=NS(=O)(=O)CCN12
-14,-0.6,-11%,3,10%,6,C/C(=N\OC(=O)c1ccccc1F)c1nccs1
24,0.6,u,-1,29%,-5,Cc1ccc(C(=O)COc2ccccc2C(=O)Nc2ccccc2)cc1
4,-5.0,-17%,0,-7%,-2,COc1ccc(Oc2coc3c(CN4CCOCC4)c(O)ccc3c2=O)cc1
-5,-2.1,-37%[inhibitor],-1,-4%,-15,COCCn1nnnc1C(c1ccccn1)N1CCN(c2cc(C)ccc2C)CC1 (stereo not given)
-12,u,u,-17,-17%,-6,COc1ccc2[nH]c3c4c(ccc3c2c1)C(=O)C=CC4=O
2,-1.1,7%[15.4 µM],-5,11%,-6,COc1cc(/C=N/NC2=NCCCCC2)ccc1O
-1,1.6,-22%,7,6%,-5,CCOC(=O)N1CCN(C(=O)C2CC(c3ccccc3OC)=NO2)CC1 (stereo not given)
6,-5.3,-22%,1,-2%,-5,CCSc1nnc(NC(=O)NC2CCCCC2)s1
3,-1.6,-22%,0,-12%,-16,O=C(CC(c1ccccc1)C1CCCCC1=O)c1ccccc1 (stereo not given)

Next section.
CtBP-E1A blk,D2 agonist,gsp ag,Six1-Eya2 blk,gsp antagonist,D2 potentiator,Structure
13,-13,5%[15.4 µM],-4,-5%,-15,O=C(CNC(=O)C(c1ccccc1)c1ccccc1)OCc1ccccc1
4,-4.1,0%,0,0%,0,COC(=O)[C@@H](NC(=O)Nc1ccc(C(C)=O)cc1)C(C)C
x,-4.3,5%,-7,-17%,-18,COc1ccc(-c2nc3c4ccccc4ccn3c2CN2CCOCC2)cc1OC
0,-1.2,x,-2,x,-6,O=C(NCc1cccnc1)c1cc(C2CCCN(C(=O)CCCc3ccccc3)C2)on1 (stereo not given)
4,-0.5,22%,2,-1%,-27,COC(=O)c1c(NC(=O)C(=O)NCC2CCCO2)sc2c1CC(C)(C)OC2 (stereo not given)
-17,-2.2,0%[15.4 µM],-10,-1%,-5,O=C(NCCCN1CCOCC1)C(=O)N/N=C/c1cccc2ccccc12
20,-2.9,-10%,5,5%,5,Cc1ccc(NC(=O)C2CC(=O)N/C(=N/N=C/c3ccco3)S2)cc1 (stereo not given)
2,3.3,-8%,-2,-5%,1,CCn1c(SCC(=O)Nc2cc(C)on2)nnc1-c1cccc(C)c1
